# Source: PubChem (National Center for Advancing Translational Sciences (NCATS))
# TRPML1 inh: human mucolipin-1 channel inhibition. Q9GZU1. TRPML1-inducible cells, Ca2+ dye fluorescence, FDSS; hits give low values; inhibition of EC80 agonist-evoked calcium signal. activity change, negative = inhibition, % (concentration not given with the values). 390,000 tested, 0.02% active. AID 624415; in the data active means activity change below about -50%; inconclusive means about -30% to -50%; inactive means above about -30%;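 also: stimulus is agonist 54-4 at its EC80 concentration; % is scaled to controls: 0 for no effect and ±100 for the full control effect; compound concentration not given in the record; the text of the record puts the active cut at -80%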
# Target sequence (Q9GZU1 whole entry, looked up): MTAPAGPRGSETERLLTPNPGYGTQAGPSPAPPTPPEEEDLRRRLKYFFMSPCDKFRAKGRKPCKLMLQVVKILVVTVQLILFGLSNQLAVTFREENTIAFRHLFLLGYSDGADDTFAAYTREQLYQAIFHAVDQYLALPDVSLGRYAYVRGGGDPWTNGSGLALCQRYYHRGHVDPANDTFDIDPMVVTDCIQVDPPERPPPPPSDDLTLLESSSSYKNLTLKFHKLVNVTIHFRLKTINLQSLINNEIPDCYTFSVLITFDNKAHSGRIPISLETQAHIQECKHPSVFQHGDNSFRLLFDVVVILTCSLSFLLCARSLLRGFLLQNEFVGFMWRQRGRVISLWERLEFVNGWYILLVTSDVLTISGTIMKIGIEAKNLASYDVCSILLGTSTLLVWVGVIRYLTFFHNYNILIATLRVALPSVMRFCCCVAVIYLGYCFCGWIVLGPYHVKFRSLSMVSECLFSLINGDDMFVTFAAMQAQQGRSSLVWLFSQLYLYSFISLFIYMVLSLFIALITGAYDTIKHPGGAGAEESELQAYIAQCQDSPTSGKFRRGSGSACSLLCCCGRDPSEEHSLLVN
#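 Calcium fluorescence in TRPML1-DL cells induced overnight with Tet: a 110 s read after compound pin addition, then a 110 s antagonist read after challenge with 54-4 at 4 uM final (EC80).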
# Sfp PPTase inh: inhibitors of Bacillus subtilis Sfp phosphopantetheinyl transferase | Potency, µM, inactives show max response, negative = inhibition, usual class: inhibitors | 310,000 tested, 3.5% active | Biochemical Sfp PPTase activity, qHTS | Q9F4F7; active = well fitted inhibition curve with a large enough effect; inconclusive = small, poorly fitted or top-dose-only effect, or another doubt; inactive = no such curve, though single readings can be large or run the other way;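 also: the enzyme is Sfp with the accession as filed and its product quenches rhodamine fluorescence; potency is read from the fitted curve at half-maximal effect; 0% = enzyme reaction without inhibitor and -100% = no enzyme wells; top concentration of the series not given in the record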
#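 Step 1, compound plus 15 nM Sfp-PPTase, 15 min, room temperature. Step 2, add rhodamine-CoA (5 uM) and BHQ-2-YbbR (12.5 uM). Step 3, read 525/598 nm fluorescence at 0 and 30 min.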
# Menin-MLL FL inh: menin-MLL binding inhibition, fluorescein peptide; Fluorescence polarization, fluorescein-MLL peptide displacement from menin; FP activity change, % at 61.4 µM; 290,000 tested, under 10 active; AID 1766; inconclusive = falling polarisation curve, or a change in total fluorescence; inactive = total fluorescence flat and polarisation flat or rising; no compound was filed as active; the % refers to the polarisation; negative = inhibition;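 also: % of control where 0% means no effect; inhibitors lower the polarisation; unlabelled MLL peptide was the positive control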
# TRPML1 agonist: human mucolipin-1 channel agonism; Q9GZU1; TRPML1-expressing cells, Ca2+ dye fluorescence, FDSS; host cell line not named in the record; reference of the full effect not given here; activation, % (concentration not given with the values); 410,000 tested, 0.12% active; AID 624414; in the data active = activation above about 50%; inconclusive = about 30% to 50%; inactive = below about 30%; also: 0% is about no effect; the text of the record puts the active cut at 80%
#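 Tetracycline-induced TRPML1-DL cells are seeded and incubated overnight before loading with a no-wash Ca2+ dye and quencher. Agonist activity is taken from the 110 s fluorescence read following compound pin-transfer on an FDSS, before EC80 54-4 challenge.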
# TRPV1 potentiator: human TRPV1 potentiation. Q8NER1. TRPV1-expressing cells, Fluo-8 calcium influx, capsaicin EC20 potentiation; host cell line not named in the record; control for the full effect not named in the record. potentiation, % at 8.33 µM. 320,000 tested, 0.02% active. AID 540277; active means potentiation above 80%; inconclusive means 30% to 80%; inactive means below 30%; also: 0% is about no effect
#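 TRPV1-expressing cells were cultured overnight at 35.5C and loaded with Fluo-8 calcium dye for 40 to 90 min at room temperature. After a 10 s baseline, compound was added and calcium influx was read kinetically for 3 min (ex 480/em 520 nm).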
# ClpP mod: qHTS Assay for Activators of ClpP; ATP-dependent Clp protease proteolytic subunit (Bacillus subtilis (strain 168)), P80244; purified B. subtilis ClpP, FRET peptide cleavage, 20 min; Potency, µM (series often up to 57.5 µM), for the others: at the highest dose activity change, negative = active; 340,000 tested, 1.9% active; AID 651965, 2013; active = well fitted falling curve with a large enough effect; inconclusive = small, poorly fitted or top-dose-only effect; inactive = no such curve, though single readings can be large or run the other way; also: potency is read from the fitted curve at half-maximal effect; the source files actives as falling curves though it sought activators and does not explain the sign; nearly all actives have a fitted effect of over 65% in size; many hits overshoot -100%
# Target sequence (P80244 whole entry, looked up): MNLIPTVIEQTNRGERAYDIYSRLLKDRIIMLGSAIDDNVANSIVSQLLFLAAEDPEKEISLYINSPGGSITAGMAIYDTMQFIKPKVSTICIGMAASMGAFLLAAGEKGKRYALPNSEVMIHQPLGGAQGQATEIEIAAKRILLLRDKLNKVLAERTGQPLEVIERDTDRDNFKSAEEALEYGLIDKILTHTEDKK
#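 Buffer: 100 mM Tris/HCl pH8, 100 mM KCl, 0.05% low protease BSA, 2.5% glycerol, 0.01% Tween-20. ClpP 10 microg/mL final; 20 min RT; delta FRET normalized to ADEP and DMSO controls.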
# PINK1 modulator: changes PINK1 expression; AID 624263; 410,000 tested, 0.2% active; PINK1 immunofluorescence, high-content cytometry, 24 h; Potency, µM (titrated, usually from 76.6 µM), for the others: at the highest dose activation (PINK1 increase), most hits filed as activators; active = well fitted activation curve with a large enough effect; inconclusive = small, poorly fitted or top-dose-only effect; inactive = flat fitted curve, though single readings scatter; cell line not stated here;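 also: potency is read from the fitted curve at half-maximal effect; % of control where 0% means no effect; nearly all actives have a fitted effect of over 65% in size; a mitochondrial uncoupler was the plate control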
#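 Stable cell line, 250 cells/well, 12 h attachment; compounds pinned at 5 concentrations, 24 h; CCCP control. Fixed with nuclear dye, primary antibodies 12 h at 10 degrees C, secondary plus cell stain; laser-scanning cytometer read.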
# An asterisk follows results filed as active; ? = inconclusive; . = not tested or not shown; & = joins results of further samples; [ ] = another dose, or the depositor's remark.
# Start of the data: the first four compounds as a preview:
SMILES,TRPML1 inh,Sfp PPTase inh,Menin-MLL FL inh,TRPML1 agonist,TRPV1 potentiator,ClpP mod,PINK1 modulator
C[C@H]1COC[C@@H](C/C=C/c2ccccc2)N1c1ccccc1,5,.,.,0.5,.,-2.0%,14%
COCC(=O)N1CCC2(CCN(Cc3ccc(C#N)cc3)CC2)CC1,.,26%,-4.8,.,.,.,-0.1%
COC(=O)CCCC1=CC2=CC(=O)C(C)(OC(=O)c3cccs3)C(=O)C2=CN1CC(C)C (configuration not stated),36,12%&3%,-4.5[11.7 µM],2.6,-21,1.0%,1.2%
O=C(c1cn(CC2CCCCC2)nn1)N1CCN(c2ccc(F)cc2)CC1,7,5%,.,-0.6,5,2.3%,-0.8%

# Main list, from the first entry:
SMILES,TRPML1 inh,Sfp PPTase inh,Menin-MLL FL inh,TRPML1 agonist,TRPV1 potentiator,ClpP mod,PINK1 modulator
C[C@H]1COC[C@@H](C/C=C/c2ccccc2)N1c1ccccc1,5,.,.,0.5,.,-2.0%,14%
COCC(=O)N1CCC2(CCN(Cc3ccc(C#N)cc3)CC2)CC1,.,26%,-4.8,.,.,.,-0.1%
COC(=O)CCCC1=CC2=CC(=O)C(C)(OC(=O)c3cccs3)C(=O)C2=CN1CC(C)C (configuration not stated),36,12%&3%,-4.5[11.7 µM],2.6,-21,1.0%,1.2%
O=C(c1cn(CC2CCCCC2)nn1)N1CCN(c2ccc(F)cc2)CC1,7,5%,.,-0.6,5,2.3%,-0.8%
N#Cc1nc(-c2ccco2)oc1NCc1ccco1,-2,17%,7.3,0.9,-18,3.2µM*,1.2%[38.3 µM]
Cc1ccc(S(=O)(=O)N2CCN(S(=O)(=O)N(C)C)CC2)cc1,3,12%,-2.6,-0.8,-30,-2.0%,3.9%
O=C(Nc1cccc(C(F)(F)F)c1)c1cc2nc(-c3ccccc3)cc(C(F)(F)F)n2n1,9,.,.,0.8,.,-20%,0.0%
Cc1cc(CNC(=O)C2CCC(=O)N(CCc3cccc(F)c3)C2)nn1C (configuration not stated),10,13%,.,-0.2,-12,0.7%,-0.7%
Cc1cccc(N2CCN(C(=O)c3ccc4c(c3)c(C)c(C)n4C)CC2)c1C,9,.,.,1.4,.,-2.2%,0.4%
N=c1c(C(=O)NCc2ccccc2)cc2c(=O)n3ccccc3nc2n1CCCN1CCOCC1,12,20%,4.6,-0.9,3,3.2µM*,-1.2%
O=C1CCCc2c1[nH]c1c(Br)cccc21,15,9%,0.6,0.8,5,-10.0%,-3.1%
Cn1cc(NC(=O)OCc2ccc(Cl)cc2)c(C(F)(F)F)n1,8,4%,-2.3,4.2,-3,0.2%,2.4%
CC(C)c1ccccc1NC(=O)CNC(C)c1ccc(F)cc1 (configuration not stated),17,10%,-3.7,-0.1,5,.,3.2%
COc1ccc(NC(=O)Cn2c(=O)n(Cc3nc(C)no3)c(=O)c3cc4c(cc32)OCO4)cc1OC,9,.,.,0.7,.,-13%,-1.6%
Cc1ccc(S(=O)(=O)NCc2ccccc2)cc1C(=O)N(C)Cc1ccc(F)cc1,-3,14%,0.0,-0.5,1,1.3%,-0.1%
C=CCn1cc(Cl)c(=O)n(CC=C)c1=O,-3,-3%,4.0,0.3,.,-0.5%,.
Cc1cccc(N2CCN(S(=O)(=O)c3cc4c(cc3Cl)NC(=O)CO4)CC2)c1C,1,17%,8.7,1.6,4,2.0%,3.1%
Cn1cc(/C=N/NC(N)=S)c2ccccc21,2,-12%,-0.2,0.7,14,.,-1.1%
O=C(NN1CCOCC1)c1ccc(Cl)cc1Cl,48,.,.,-0.1,.,-0.8%,6.6%
Cc1nc(COc2cccc(Cl)c2)sc1C(=O)/C=C/N(C)C,-5,-11%,3.5,0.8,13,0.5%,0.6%
Cc1ccc(SCCC(=O)OCC(=O)NCC2CCCCC2)cc1,22,7%,1.7,5.1,-16,.,0.2%
Cc1cc(C)cc(-n2c(SCC(=O)Nc3ccc4c(c3)OCO4)nc3c([nH]c4ccccc43)c2=O)c1,5,.,.,1.9,.,?,-5.7%
CC(C)(C)C(=O)Nc1ccc(NC(=O)C(C)(C)C)cc1,.,24%,-1.8,.,1,-2.5%,2.2%
Cc1ccc(-n2ncc3c2CCCC3NC(=O)c2ccoc2)cc1C (configuration not stated),7,4%,-1.5,-0.2,-9,-0.7%,2.4%
Cn1c(CCN2CCCCC2)nc2cc(NC(=O)NC3CCCCC3)ccc21,0,-7%,-11,0.4,8,-18%,0.6%
CC(C)(C)NC(=O)Cn1nnc(-c2ccccc2NC(=O)c2ccco2)n1,-5,.,.,-0.8,.,-7.3%,-1.0%
COc1ccc(OC)c(S(=O)(=O)Nc2ccc(OCC(=O)O)cc2)c1,10,-9%,1.5,0.0,1,-1.1%,0.6%
CCN(C(=O)CN1CCCc2ccccc21)c1c(N)n(Cc2ccccc2)c(=O)[nH]c1=O,.,12%,-1.1,.,-2,.,.
C[C@H](CO)N1C[C@H](C)[C@@H](CN(C)S(=O)(=O)c2ccc(F)cc2)Oc2ccc(NS(=O)(=O)c3ccc(F)cc3)cc2C1=O,0,.,.,-0.6,.,0.3%,0.6%
CCOC(=O)C(CCCCC(NC(C)=O)(C(=O)OCC)C(=O)OCC)(NC(C)=O)C(=O)OCC,23,13%,2.8,-0.4,-4,8.5%,-2.4%
CC1C(=O)N(Cc2cn(Cc3ccco3)nn2)CCS(=O)(=O)N1Cc1ccc(-c2ccncc2)cc1 (configuration not stated),11,.,.,0.4,.,-6.4%,0.7%
Cc1ccn2c(Nc3ccccc3C)c(-c3ccccc3)nc2c1,50,.,.,-0.1,.,4.1%,-1.4%
Cc1ccc(NC(=O)COC(=O)CNC(=O)c2ccc(C)s2)cc1,-4,17%,0.3,0.6,7,.,0.9%
Cc1cc(C)cc(OCC(=O)Nc2cc(C)on2)c1,-12,8%,-1.1,-0.3,0,.,2.0%
CC(Nc1ccc2ccccc2c1)C(=O)N/N=C/c1ccncc1 (configuration not stated),15,.,.,4.0,-15,-2.3%,-0.9%
COc1ccccc1NC(=O)c1sc2nc(-c3ccco3)ccc2c1N,3,-23%,?,0.4,0,3.4%,4.3%
O=C(Nc1ccc([N+](=O)[O-])cc1)C1CC1(c1ccccc1)c1ccccc1 (configuration not stated),?,18%,3.9,-0.3,-9,-3.2%,2.8%
CCCn1c(=NC(C)=O)c(C(=O)OCC)cc2c(=O)n3ccccc3nc21,16,9%,1.4,0.3,-3,-21%,-1.4%[38.3 µM]
CC(C)COC(=O)C1C2C=CC3(CN(C4CCCC4)C(=O)C13)O2 (configuration not stated),3,12%,0.9,0.8,0,3.3%,2.3%
CCOC(=O)C1CCN(C(=O)c2ccc3c(c2)C(=O)N(c2ccccc2C)C3=O)CC1,12,.,.,-1.0,-5,0.9%,0.7%
CCOC(=O)c1c(C)[nH]c(C)c1C(=O)CSc1nc2ccccc2[nH]1,8,10%,7.1,0.7,6,0.5%,?
COc1cc(/C=N/NC(=O)CC2C(=O)NN=C2C)ccc1O (configuration not stated),31,-1%,1.6,-0.3,29,-17%,0.8%
CCc1cc2c(cc3c(=O)n(CC(=O)N4CCN(c5cc(Cl)ccc5C)CC4)nc(CC)n32)s1,36,.,.,0.2,.,-14%,-0.5%
O=C1CCCC2=C1C(c1ccsc1)CC(=O)N2c1ccccc1 (configuration not stated),-11,13%,4.9,0.2,1,-2.1%,3.3%[38.3 µM]
CCC1=NN2C(=N)/C(=C/c3cc(C)n(-c4ccccc4)c3C)C(=O)N=C2S1,-3,8%,13,0.5,.,-0.4%,30%
CC(NC(=O)c1ccc2nc(CCc3ccccc3)oc2c1)c1ccccc1 (configuration not stated),11,.,.,1.3,.,0.9%,2.2%
Cc1ccc(C(=O)Nc2cccc3ncccc23)cc1[N+](=O)[O-],8,10%,5.7,1.5,-13,0.3%,1.5%
Cc1[nH]c2ccccc2c1C(=O)CSc1nc2ccccc2c(=O)n1CCCN1CCOCC1,21,-8%,-0.6,-0.4,4,-0.4%,3.6%
CC(=O)c1cccc(NC(=S)N2CCN(CCN3C(=O)c4cccc5cccc(c45)C3=O)CC2)c1,22,5%,-1.6,0.5,-6,.,1.6%
COc1cc(OC)c(/C=N/NC(=O)c2ccc(NC(C)=O)cc2)cc1Br,13,14%,2.0,-0.1,22,.,-0.5%
Cc1ccc(-n2c(SCC(=O)O)nc3sc4c(c3c2=O)CC(C)(C)SC4)cc1,-7,.,.,0.7,.,0.0%,2.7%
CCOc1cc2[nH]c(=O)n(CCCCC(=O)N3CCN(c4cccc(Cl)c4)CC3)c(=O)c2cc1OCC,19,.,.,-0.4,.,-6.1%,0.7%
O=C1Nc2cc(C(=O)NCCCN3CCCC3)ccc2S/C1=C/c1cccc(Cl)c1,3,.,.,0.2,.,-2.7%,-2.2%
CCOC(=O)C(CC(=O)O)N1CCCCC1 (configuration not stated),5,8%,2.9,-0.5,.,0.1%,1.3%
Cc1nc(N2CCOCC2)c2c(C(=O)N3CCN(c4ccccc4F)CC3)c(C)oc2n1,-19,.,.,0.7,.,-2.0%,6.6%
O=C(NCC1CCCO1)c1ccc(/C=N/O)nc1 (configuration not stated),-6,?,0.8,-0.4,-4,4.4%,-1.7%
COc1cccc(S(=O)(=O)NCc2ccc3c(c2)OCO3)c1,12,-9%,5.1,-0.2,10,-4.3%,-2.6%[38.3 µM]
Cc1cc(C)c(S(=O)(=O)N2CCN(C(=O)C(C)Cn3nc(C)nc3C)CC2)c(C)c1 (configuration not stated),-6,9%,-4.3,-0.5,28,.,-1.2%
O=C(c1ccc(Br)cc1)N(Cc1cccs1)c1ccc(F)cc1,41,.,.,3.2,.,0.7%,-0.2%
COc1ccc(NC(=O)N2CCCC3(CCN(C(=O)c4ccc(OC)cc4)CC3)C2)cc1,.,-12%,1.9,.,.,.,-0.9%
Cn1cnnc1SCC(=O)Nc1ccc(S(N)(=O)=O)cc1,8,16%,-0.3,-0.7,3,0.1%,0.5%
